Source: PubChem (Johns Hopkins Ion Channel Center)
CHT inh: inhibits the human high affinity choline transporter; B-score at 10 µM; CHT-expressing cells, membrane potential dye, choline response; active compounds read low; hit rate 0.86% among 310,000; Q9GZV3; AID 488975;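 active means B-score over 3 SD under the library average, and starting fluorescence ratio not unusually high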;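 further: choline stimulus applied at its EC90 after an EC20 pre-addition; B-score computed on integrated fluorescence ratio after choline addition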
Target sequence (Q9GZV3 whole entry, looked up): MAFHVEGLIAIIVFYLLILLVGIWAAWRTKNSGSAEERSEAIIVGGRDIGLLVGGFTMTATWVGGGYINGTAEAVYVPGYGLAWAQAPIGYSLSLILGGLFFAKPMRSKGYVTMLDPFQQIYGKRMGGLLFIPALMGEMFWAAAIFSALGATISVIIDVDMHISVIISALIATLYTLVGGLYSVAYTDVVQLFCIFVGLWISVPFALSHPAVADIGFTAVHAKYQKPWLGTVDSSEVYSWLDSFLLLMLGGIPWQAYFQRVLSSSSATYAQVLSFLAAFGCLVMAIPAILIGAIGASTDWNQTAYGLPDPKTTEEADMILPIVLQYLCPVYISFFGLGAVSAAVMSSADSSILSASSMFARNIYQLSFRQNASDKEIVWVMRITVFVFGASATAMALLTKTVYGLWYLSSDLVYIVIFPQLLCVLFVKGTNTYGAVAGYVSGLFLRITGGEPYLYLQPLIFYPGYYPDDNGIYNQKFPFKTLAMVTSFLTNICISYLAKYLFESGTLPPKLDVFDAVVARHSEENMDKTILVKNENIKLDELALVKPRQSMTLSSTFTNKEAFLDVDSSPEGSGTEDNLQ
Calls only; i = inactive. Only part of the results is shown, and most or all hits are left out here.

SMILES	CHT inh
Cc1cc(NC(=O)C(C)C)n(-c2nc3ccccc3s2)n1	i
COc1cc(CCC(=O)OCC(=O)Nc2c(C)cccc2C(C)C)cc(OC)c1OC	i
O=C(O)c1cc(NCc2cccs2)ccc1N1CCOCC1	i
NS(=O)(=O)c1ccc(NC(=O)c2cccc3ccccc23)cc1	i
COc1ccc([N+](=O)[O-])cc1NC(=O)C(C)OC(=O)CN1C(=O)C2CC=CCC2C1=O (centres undefined)	i
COC(=O)c1cc(S(=O)(=O)N2CCCCC2)ccc1N1CCOCC1	i
COc1ccc(NC(=O)CCCNC(=O)Cn2cnc3sc(C)c(C)c3c2=O)c(OC)c1	i
O=C(c1cc2ccc([N+](=O)[O-])cc2oc1=O)N1CCOCC1	i
C=CCOc1ccc(-c2nc3c(c(=O)[nH]c(=O)n3CCCC)n2C)cc1OC	i
COc1ccccc1N1CCN(/N=C/c2cc(OC)c(OC)c(OC)c2)CC1	i
COc1ccc(C(=O)NC2CC2)cc1OC1CCN(Cc2ccc(Cl)cc2)CC1	i
NCCCCCc1nnc(SCc2ccccc2Cl)o1	i
Cc1cc(=O)oc2cc(OCC(=O)OCC(=O)Nc3ccc4ccccc4c3)ccc12	i
O=C(CN1C(=O)/C(=C\c2ccc(C(F)(F)F)cc2)Sc2ccccc21)NCc1ccco1	i
COCOc1ccc(-c2oc3c(C/C=C(\C)CCC=C(C)C)ccc(O)c3c(=O)c2OCOC)c(OCOC)c1	i
COc1ccc(CC(=O)Nc2c(C(N)=O)oc3ccccc23)cc1	i
Nn1c(SCc2nc3ccccc3[nH]2)nnc1-c1ccccc1	i
Cc1cc(C)nc(Nc2cccc3ccccc23)n1	i
CC(C)(C)OC(=O)CNC(=O)c1nc[nH]c1C(=O)N1CCN(C(=O)OC(C)(C)C)CC1	i
CC12CN3CC(C)(CN(C1)C3c1ccc3ccccc3c1O)C2=O (centres undefined)	i
CCOC(=O)CNc1nc(Cl)nc(Nc2ccc(OC)cc2OC)n1	i
COC(=O)CN1C(=S)N(c2ccc(OC)cc2)C(=O)C1CC(=O)Nc1ccc(F)cc1 (centres undefined)	i
Cc1ncc(N=Nc2ccccc2)c(-c2ccccc2)n1	i
COc1ccc(-c2cn3cc(C(F)(F)F)cc(Cl)c3n2)cc1	i
CCc1cccc(C)c1NC(=S)NCC(c1cccnc1)N1CCOCC1 (centres undefined)	i
O=C(CN1C(=O)C2(OCCO2)c2ccccc21)c1ccc(Br)cc1	i
O=C(Nc1ccon1)C1CCN(S(=O)(=O)c2cccs2)CC1	i
O=C(Nc1ccc(O)c2c(=O)cc(-c3cccc(Cl)c3)oc12)c1ccc(F)cc1	i
COc1cccc(C(=O)NCCN2CCN(c3ccccc3)CC2)c1	i
CCNC(=S)Nc1ccc(C)c(Cl)c1	i
CCc1nnc(NS(=O)(=O)c2ccc(N)cc2)s1	i
CCOC(=O)c1[nH]cnc1C(=O)O	i
CCOc1ccc(C(=O)CC(NCc2cccs2)C(=O)O)cc1 (centres undefined)	i
CC(=O)Nc1nnc(-c2c(-c3ccccc3Cl)noc2C)o1	i
CSc1nc2ccc(NC(=O)C3=NNC(=O)CC3)cc2s1	i
CCc1ccc(NC(=O)C2CCCN(S(=O)(=O)c3ccc4c(c3)CCCN4C(C)=O)C2)cc1 (centres undefined)	i
C=CCn1c(=O)c(C(=O)Nc2ccccc2C(=O)OCC)c(O)c2ccccc21	i
COc1ccc(-c2cc(C(=O)Nc3c(C)n(C)n(-c4ccccc4)c3=O)no2)cc1	i
Cc1cc(NS(=O)(=O)c2ccc(NC(=O)CCCOc3ccccc3)cc2)no1	i
O=C(c1ccccc1)c1ccc(OC(=O)N2CCCC2)cc1	i

6 entries from above, set out differently.
SMILES | CHT inh
COc1ccc(-c2cn3cc(C(F)(F)F)cc(Cl)c3n2)cc1 | i
CCc1cccc(C)c1NC(=S)NCC(c1cccnc1)N1CCOCC1 (centres undefined) | i
O=C(CN1C(=O)C2(OCCO2)c2ccccc21)c1ccc(Br)cc1 | i
O=C(Nc1ccon1)C1CCN(S(=O)(=O)c2cccs2)CC1 | i
O=C(Nc1ccc(O)c2c(=O)cc(-c3cccc(Cl)c3)oc12)c1ccc(F)cc1 | i
COc1cccc(C(=O)NCCN2CCN(c3ccccc3)CC2)c1 | i

The results go on.
SMILES	CHT inh
CCOc1ccc(CCNC(=O)CCNC(=O)c2ccccc2Cl)cc1OCC	i
CC(=O)N1CCc2c(sc(NC(=O)Cc3ccc(F)cc3)c2C#N)C1	i
COCCn1nnnc1C(c1cc2cc(C)ccc2[nH]c1=O)N1CCc2ccccc21 (centres undefined)	i
COc1ccc2c(c1)CCC/C2=N\NC(=O)c1ccoc1C	i
COCCNC(=S)N1CCN(c2cccc(C)c2C)CC1	i
CCCCCCn1c(N2CCC(C(N)=O)CC2)nc2c1c(=O)[nH]c(=O)n2C	i
Cc1cc(C)cc(C(=O)Nc2nnc(SCC(=O)NCC3CCCO3)s2)c1 (centres undefined)	i
COC(=O)c1cnn(-c2nc3c(C)cccc3s2)c1C	i
O=C(CCCN1C(=O)/C(=C\c2ccccc2)SC1=S)Nc1ccc(O)cc1	i
Cc1ccc(S(=O)(=O)N[C@H](C(=O)N2CCC(C(=O)N[C@@H](CC(=O)O)C(=O)O)CC2)C(C)C)cc1	i
CCOC(=O)C(C)Sc1ccc2nnc(-c3ccc(F)cc3)n2n1 (centres undefined)	i
O=C(c1ccc(Cl)cc1)c1ccc(OCC(O)CN2CCCCC2)cc1 (centres undefined)	i
O=C(O)c1cccc(CN2C(=O)SC(Nc3cccc4ccccc34)C2=O)c1 (centres undefined)	i
CCOC(=O)C1=C(C)N(C)C(=O)NC1c1ccc(C)s1 (centres undefined)	i
Cc1cccc(CC(=O)N2CCC(N3CCC(C(=O)N4CCOCC4)CC3)CC2)c1	i
CC(/C=N/NC(=O)c1cc(C(C)(C)C)[nH]n1)=C\c1ccccc1	i
Cc1ccc(-c2ccc(SCC(=O)Nc3cc(C)on3)nn2)cc1	i
CNC(=O)c1c(NC(=O)CCS(=O)(=O)c2ccc(F)cc2)sc(C)c1C	i
CCC1=NN(C(=O)Cc2ccc([N+](=O)[O-])cc2)C(O)(C(F)(F)F)C1 (centres undefined)	i
O=C(CSc1nnc(SCc2cccc3ccccc23)s1)Nc1ccc(C(=O)O)cc1	i

Exported as comma-separated lines: part of the list above
compound,CHT inh
CCOC(=O)C1=C(C)N(C)C(=O)NC1c1ccc(C)s1 (centres undefined),i
Cc1cccc(CC(=O)N2CCC(N3CCC(C(=O)N4CCOCC4)CC3)CC2)c1,i
CC(/C=N/NC(=O)c1cc(C(C)(C)C)[nH]n1)=C\c1ccccc1,i
Cc1ccc(-c2ccc(SCC(=O)Nc3cc(C)on3)nn2)cc1,i
CNC(=O)c1c(NC(=O)CCS(=O)(=O)c2ccc(F)cc2)sc(C)c1C,i

Back to the main list with the two entries that preceded the break.
SMILES	CHT inh
CCC1=NN(C(=O)Cc2ccc([N+](=O)[O-])cc2)C(O)(C(F)(F)F)C1 (centres undefined)	i
O=C(CSc1nnc(SCc2cccc3ccccc23)s1)Nc1ccc(C(=O)O)cc1	i
CCCS(=O)(=O)c1c(S(=O)(=O)CCC)c2ccc(C(N)=O)cn2c1C(=O)OC	i
c1ccc(Oc2cccc(CN3CCCCC3)c2)cc1	i
O=C(O)c1ccc2c(c1)C(=O)N(c1cccc(C(=O)/C=C/c3ccccc3)c1)C2=O	i
CC(=O)Nc1ccc(S(=O)(=O)NNC(=O)c2cccc(Br)c2)cc1	i
Cc1ccc(CNS(=O)(=O)c2cc3c4c(c2)CCN4C(=O)CC3)cc1	i
CCOc1ccccc1N1CCN(C(=O)c2ccccc2)CC1	i
COc1cccc(=O)c2c(C)n(CC(=O)c3ccccc3)c(C)c12	i
COc1ccc(CC2(CO)CCN(S(=O)(=O)c3c(C)nn(C)c3C)CC2)cc1	i
CC1Cc2ccccc2N1C(=O)CSc1nnc(C2CC2)n1C (centres undefined)	i
COc1ccccc1NC(=O)c1ccc(S(=O)(=O)N2CCCC2)cc1	i
CCOc1ccc(CN(C)C(=O)c2ccc(=O)[nH]c2)cc1	i
COc1ccc(NC(=O)c2ccc(NC(=O)CSc3nccc(=O)[nH]3)cc2)cc1	i
CCOc1cc(NC(=O)c2ccco2)c(OCC)cc1NC(=O)Cc1cccc(OC)c1	i
COc1nc(N2CCOCC2)nc(-n2cccc2)n1	i
Cc1nc(N2CCN(C(=O)c3ccco3)CC2)[nH]c(=O)c1C	i
CCC(C#CCN1CCCCC1)(CC)OCCC#N	i
C/C(=N\Nc1nc(N)cc(Cl)n1)c1ccc(F)cc1	i
Cc1nc(-c2cnn(-c3ccccc3)c2)c2cc(C)oc2n1	i
O=C(O)c1nn(CC(=O)N2CCN(c3ncc(C(F)(F)F)cc3Cl)CC2)c(=O)c2ccccc12	i
CCOP(=O)(OCC)C(Nc1ccccc1)c1ccc2c(c1)OCO2 (centres undefined)	i
COc1ccc(-c2cc(C(F)(F)F)n3ncc(C(=O)N4CCCCC4c4cccnc4)c3n2)cc1 (centres undefined)	i
c1ccc(CCc2ccncc2)cc1	i
COc1cc(C(=O)Nc2ccc(C)cn2)c([N+](=O)[O-])cc1OC	i
CCCn1c(C2CCCN2c2nc(-c3ccc(C)cc3)cs2)nc2ccccc21 (centres undefined)	i
Cc1nn(C(C)(C)C)c(NC(=O)c2ccc(Cl)cc2)c1Br	i
Cc1nn(C(C)C(=O)N2CCOCC2)c(=O)c2nn(-c3ccccc3)c(C)c12 (centres undefined)	i
CCOC(=O)C1=NN(C(C)=O)C2C(=O)N(CC)C(=O)C12 (centres undefined)	i
Cc1ccc(S(=O)(=O)NCc2ccccc2)cc1C(=O)NC1CCC(C)CC1 (centres undefined)	i
O=C(Nc1cccc(NC(=O)c2ccco2)c1)c1cnccn1	i
CCn1cnc2cc(NC(=O)c3cccs3)ccc21	i
Cc1ccc2nc(NC(=O)C3CCCN(S(=O)(=O)c4cccnc4)C3)sc2c1 (centres undefined)	i
CC(C)(C)NC(=O)c1cc2c(ccc3ccccc32)oc1=O	i
CC(=O)Oc1ccc(C(=O)Nc2cccc(C(=O)Nc3ccccc3C(=O)O)c2)cc1	i
COc1ccc(NC(=O)c2cc(-c3ccccc3Cl)on2)cc1	i
CC(=O)NNc1nc2ccccc2s1	i
O=C(O)c1ccc(Cl)c(S(=O)(=O)N(Cc2ccccc2)c2ccccc2Cl)c1	i
CCOC(=O)C1(C)NC(c2ccc(N(C)C)cc2)C2C(=O)N(CC)C(=O)C21 (centres undefined)	i
Clc1ccc(-c2nc3ncccn3c2Nc2ccc3c(c2)OCO3)cc1	i
O=C(CCCn1c(=O)[nH]c2ccsc2c1=O)N1CCCCC1	i
COc1ccc(OC)c(NC(=O)Nc2cccnc2)c1	i
CC(C)(C)NC(=O)CSc1nc2ccc(NC(=O)CSc3nnnn3Cc3ccccc3)cc2s1	i
O=S(=O)(Nc1ccc2c(c1)nc1n2CCN(Cc2ccccc2)C1)c1ccc(Cl)cc1	i
COc1ccc2c(c1)CCc1c(C(=O)Nc3c(C)nn(Cc4ccccc4)c3C)noc1-2	i
CCOc1ccccc1C1CC(=O)Nc2cc(OC)c(OC)cc21 (centres undefined)	i
COc1ccccc1/C=N/NC(=O)c1ccc(CN2C(=O)c3cccc4cccc2c34)cc1	i
Cc1c(C(=O)N2CCCC2)c(S(=O)(=O)Nc2ccccc2Cl)c(C)n1C	i
CCc1cccc2c(C(=O)C(F)(F)F)cn(CC(=O)N3CCOCC3)c12	i
CCCNC(=O)c1cc(OC)c(OC)cc1[N+](=O)[O-]	i
COc1ccc2[nH]c(=O)c(CN(Cc3nnnn3Cc3ccc(F)cc3)CC3CCCO3)cc2c1 (centres undefined)	i
Cc1ccc(NC(=O)CSc2nccn2C)cc1F	i
O=C(COc1ccccc1[N+](=O)[O-])NNC(=O)Nc1cccc2ccccc12	i
O=C(NCc1ccccc1)c1ccc2nc(N3CCOCC3)sc2c1	i
O=C(O)CCN1c2cccc3cccc(c23)S1(=O)=O	i
COc1cc(/C=C(\C#N)c2ccccn2)ccc1OCC(=O)Nc1cccc(C(F)(F)F)c1	i
COc1ccc(CCNC(=O)CN(C)S(=O)(=O)c2cccc3nsnc23)cc1OC	i
Nc1nc(Nc2cccc(Cl)c2)nc(NCCO)c1[N+](=O)[O-]	i
Cc1ccc2nc(NC(=O)CN3C(=O)NC4(CCCC4)C3=O)sc2c1	i
C(=C\c1ccccc1)/CSc1ccccn1	i
COC(=O)c1ccccc1NC(=S)N(C)C	i
CC(/C=C1\SC(=Nc2cccnc2)NC1=O)=C\c1ccccc1	i

Next compounds.
SMILES	CHT inh
CCCNC(=O)c1ccc(N2CCC3(CC2)CC(c2cccc(Br)c2)=NO3)c(NC(=O)c2ccc(Br)cc2)c1	i
O=C(NNC(=O)C1C2CCC(C2)C1C(=O)O)c1cccc(Cl)c1 (centres undefined)	i
Nc1nnc(CCC2CCCCC2)s1	i
Cc1noc(C(=O)Nc2cccnc2)c1Cl	i
CCN(CC)S(=O)(=O)c1cccc(C(=O)N[C@H](C(=O)NCc2ccc(Cl)cc2)C(C)C)c1	i
COc1nc(C)ccc1-c1noc(-c2ccco2)n1	i
COc1ccccc1NS(=O)(=O)c1cc(NC(=O)CNC(=O)c2ccc(C)s2)ccc1Cl	i
CN1CCN(C(=O)N(c2ccccc2)c2ccccc2)CC1	i
NC(=O)c1c(NC(=O)c2ccccc2F)sc2c1CCCC2	i
O=C1OCCC1Sc1ncnc2sc3c(c12)CCC3 (centres undefined)	i
Cc1c(Br)cc(C(=O)N2CCCC2)c(C)c1C	i
Cc1cc(C)c2c3c(sc2n1)C(c1ccccc1)C(C#N)=C(N)O3 (centres undefined)	i
CCCCCCNS(=O)(=O)c1ccccc1Br	i
Nc1scc2c(C(=O)N/N=C/c3ccc(Cl)cc3)nn(-c3ccccc3)c(=O)c12	i
O=S(=O)(Nc1cccc2ccccc12)N1CCCC1	i
O=C(NCc1ccco1)c1cnn2c(C(F)(F)F)cc(-c3ccccc3)nc12	i
CCOC(=O)CCc1n[nH]c(=O)[nH]c1=O	i
C/C(=N\NC(=S)NC(C)C)c1ccc(-n2ccnc2)cc1	i
O=C1/C(=C/c2ccc(C(=O)O)cc2)CCC/C1=C\c1ccc(C(=O)O)cc1	i
CCCCCCCC(=O)NNC(=O)c1ccc(F)cc1	i
